ALR inh: inhibitors of human sulfhydryl oxidase ALR. purified ALR, DTT oxidation, H2O2 HRP-luminol luminescence. inhibition, % (test concentration not listed). actives 3.8% (n = 290,000). AID 485317;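 active means mean and each replicate at 75% or more; inconclusive means only one of the two met; inactive means neither met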;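 further: stock transfer was 7.5 nL into about 7.5 µL; 0% = neutral wells and 100% = wells with inactivated enzyme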
Target sequence (P55789 whole entry, looked up): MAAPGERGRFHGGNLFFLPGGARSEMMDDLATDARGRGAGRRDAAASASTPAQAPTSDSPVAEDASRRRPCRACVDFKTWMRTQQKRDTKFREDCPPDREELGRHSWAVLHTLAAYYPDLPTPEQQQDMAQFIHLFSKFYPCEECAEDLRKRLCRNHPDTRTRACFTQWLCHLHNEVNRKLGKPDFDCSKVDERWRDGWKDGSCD
FGF22 binding: shifts melting point of recombinant human FGF22; recombinant FGF22 thermal shift, SYPRO orange fluorescence; percent of sucrose octasulfate shift, DMSO zero; calls only at 9.99 µM; actives 1.5% (n = 340,000); AID 651658;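 active means melting point raised past a set limit in the mean and every replicate; inconclusive means no clear call; three in four hits are not shown here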
Target sequence (Q9HCT0 whole entry, looked up): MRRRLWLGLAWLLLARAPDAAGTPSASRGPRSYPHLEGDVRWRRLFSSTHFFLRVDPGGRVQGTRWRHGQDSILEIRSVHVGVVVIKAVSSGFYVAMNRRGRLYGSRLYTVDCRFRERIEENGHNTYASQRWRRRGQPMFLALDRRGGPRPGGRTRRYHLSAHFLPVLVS
Calb FLC: C. albicans growth modulation with fluconazole | C. albicans CaCi-2 (fluconazole-resistant clinical isolate) + fluconazole, Alamar Blue growth, 48 h | growth inhibition, % (test concentration not listed) | actives 0.57% (n = 300,000) | AID 1979;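 active means most replicates above 75%; inconclusive means exactly half above 75%; inactive means most below 75%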;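 further: all wells also contain fluconazole at 8 µg/ml as a sub-toxic cotreatment; 0% = median of DMSO wells and 100% = median of geldanamycin control wells; wells of about 8 µL received 7.5 nL stock; the first replicate is given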
MLL AF4-AF9 inh: MLL-AF4/AF9 protein interaction inhibition; AlphaScreen, biotin-AF4 peptide binding to FLAG-AF9; inhibition, % at 10 µM; P42568; AID 651704; actives 0.47% (n = 350,000);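 active means every replicate reaching a set inhibition limit, whatever the replicate mean, cut at about 25% in these data; inconclusive means mean inhibition reaches that limit but some replicates miss it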;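 further: 0% = plate neutral control median and 100% = total signal loss; the record names both 10 and 1 µM as test concentration; the first replicate is given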
Target sequence (P42568 whole entry, looked up): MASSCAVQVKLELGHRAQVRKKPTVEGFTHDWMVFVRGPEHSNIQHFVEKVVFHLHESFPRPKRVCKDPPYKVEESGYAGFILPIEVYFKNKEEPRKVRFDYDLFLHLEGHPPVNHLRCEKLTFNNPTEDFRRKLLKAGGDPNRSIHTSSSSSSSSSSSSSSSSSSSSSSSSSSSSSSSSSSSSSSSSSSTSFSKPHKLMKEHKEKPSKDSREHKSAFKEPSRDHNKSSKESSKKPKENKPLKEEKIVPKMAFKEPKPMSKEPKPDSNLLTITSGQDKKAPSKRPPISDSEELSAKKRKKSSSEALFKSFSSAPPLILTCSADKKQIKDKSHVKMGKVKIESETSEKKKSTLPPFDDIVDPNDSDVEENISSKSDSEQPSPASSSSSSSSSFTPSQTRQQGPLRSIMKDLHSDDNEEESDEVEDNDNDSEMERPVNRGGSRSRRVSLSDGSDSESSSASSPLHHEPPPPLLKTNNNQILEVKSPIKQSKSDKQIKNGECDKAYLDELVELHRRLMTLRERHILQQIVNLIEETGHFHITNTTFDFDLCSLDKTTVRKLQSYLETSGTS
T cruzi inh: blocks replication of Trypanosoma cruzi | T. cruzi beta-gal in NIH3T3, luminescence, 90 h | actives 1.4% (n = 300,000) | inhibition, % (concentration not given with the values);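 active means mean inhibition across valid replicates above about 55%, limit read from the data; inconclusive means mean below that limit but half or more replicates reach it; inactive means mean below it, under half of replicates reach it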;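 further: signal also drops with host cell toxicity which is not excluded here; 0% = plate median of DMSO wells and 100% = zero luminescence signal; higher percent means less beta-gal luminescence so fewer parasites; stock transfer was 50 nL into about 50 µL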
Beta apoptosis: blocks beta cell apoptosis. protection from apoptosis, % (concentration not given with the values). INS-1E cytokine-induced death, ATP luminescence, 48 h; percent of positive-control rescue, neutral wells zero. actives 0.8% (n = 300,000);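 active means all replicates at 75% or more, or half of them and the mean; inconclusive means half reach 75% but not the mean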;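 further: 0% = cytokine-treated negative control wells and 100% = positive control rescue; higher means more ATP so stronger rescue from cytokine killing; wells of about 40 µL received 100 nL stock; the first replicate is given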
RanGTP-Imp inh: disruptors of Ran-importin-beta complex formation – biochemical, FRET, CFP-Ran, YFP-importin-beta, homogeneous, primary screen. cell-free CFP-Ran/YFP-importin-beta FRET ratio. inhibition, % (concentration not given with the values). actives 1.1% (n = 300,000);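 active means most replicates above 15%; inconclusive means exactly half above 15%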;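 further: 0% = DMSO wells and 100% = Ran loaded with GDP instead of GTP; wells of about 40 µL received 100 nL stock; the first replicate is given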
rRNA inh HTS: inhibitors of bacterial rRNA selective over humanized ribosomes; E. coli WT GFP vs humanized-ribosome RFP mutants, fluorescence, 24 h; active compounds read low; DMSO median 0, no signal -100; GFP signal change (wild-type ribosome), % (concentration not given with the values); actives 1.6% (n = 350,000);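 active means significant combined selectivity score with lowered wild-type GFP, culture density cut under 30%, mutant RFP and density less affected; inactive means any of these conditions unmet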; further: one replicate is shown; some compounds called inactive have numbers as strong as hits
rRNA inh HTS OD600: further read-out of rRNA inh HTS, marked with its call; OD600 change, %; measured here: OD600 growth;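 optical density of the mix in the first replicate; 0 = DMSO median and -100 = no signal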
rRNA inh HTS RFP: recorded beside rRNA inh HTS, whose call it bears; RFP signal change, %; measured here: RFP humanized mutant strains;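 first replicate; 0 = DMSO median and -100 = no signal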
Numbers without * were called inactive; i = inactive; ? = inconclusive; . = not tested or not shown. Only part of the results is shown; count on the stated rates, not on these rows.

Molecule,ALR inh,FGF22 binding,Calb FLC,MLL AF4-AF9 inh,T cruzi inh,Beta apoptosis,RanGTP-Imp inh,rRNA inh HTS,rRNA inh HTS OD600,rRNA inh HTS RFP
CCOc1ccc(N/C=C/C(=O)c2cc(OC)c(OC)c(OC)c2)cc1,-7,i,-5,2.8,9,5,-1.3,16,16,2.5
O=C(c1cccs1)N1CCN(Cc2nc3ccccc3c(=O)[nH]2)CC1,-8,.,-2,.,-11,-8,-4.0,.,.,.
CCOC(=O)CC(NC(=O)c1cccc2c1C(=O)N(Cc1cccnc1)C2)c1ccc(OC(C)C)cc1 (stereo not given),-6,i,-8,3.0,15,-1,3.7,3,9,1.6
O=C(Cc1ccc(Cl)cc1)N/N=C/c1ccccc1,.,i,-35,-3.8,-28,-2,3.6,4,-3,-1.8
O=C1/C(=C\c2ccco2)CCC/C1=C\c1ccco1,33,i,-11,10,-11,-5,-14,9,5,2.6
FC(F)(F)c1cccc(Cc2noc(CN3CCCC3)n2)c1,-1,i,4,-0.8,-2,1,-2.1,9,6,8.5
C/C(=N\NC(=O)COc1ccc(C(C)(C)C)cc1)c1cc2ccccc2o1,-2,i,6,1.8,25,-3,-1.1,12,5,0.2
O=C1c2ccccc2C(=O)N1CC(O)COCc1ccccc1 (stereo not given),-6,.,8,.,-2,.,-1.9,.,.,.
CN(CC(=O)Nc1ccc(Cl)cc1)C(=O)CNC(=O)c1ccc2c(c1)OCO2,-9,i,3,0.1,-5,.,-0.4,2,-6,-2.1
C=CCn1c(CCNC(=O)c2ccco2)nc2ccccc21,5,i,-4,1.1,1,-9,3.5,-4,-5,-3.0
COc1ccccc1N(Cc1ccccc1)S(=O)(=O)c1cccc(C(=O)Nc2cccc(C)n2)c1,0,i,-6,1.0,43,21,-3.1,-2,-2,4.6
O=C(Nc1ccccc1)c1ccc(Br)c(S(=O)(=O)Nc2cccnc2)c1,2,.,-24,.,2,-2,2.3,.,.,.
CC1(C)Cc2cccc(OCC(=O)Nc3nccs3)c2O1,-10,.,2,.,-12,1,-3.9,.,.,.
CCOC(=O)COc1ccc2c(C#N)c3ccccn3c2c1,.,i,6,-3.5,.,.,4.9,9,3,0.1
CC(C)c1nc(N2CCN(C(=O)c3ccccc3)CC2)c(C#N)c2c1COC(C)(C)C2,1,.,1,.,12,7,-0.9,.,.,.
NS(=O)(=O)c1ccc(NC(=S)Nc2ccn(Cc3cccc4ccccc34)n2)cc1,-11,i,-9,-0.6,14,10,-0.8,-17,-15,1.4
COc1cccc(-c2ccc(C#N)c(SCC(=O)NCc3ccco3)n2)c1,4,i,?,-2.6,0,-8,-1.7,14,-3,-1.7
CCN(CC)CCC(=O)N1c2ccccc2CCc2ccc(NC(=O)OC)cc21,3,i,1,0.8,-15,-4,3.8,3,7,2.6
CCOc1ccc(-n2ccc(=O)c(C(=O)O)n2)cc1,1,i,5,-0.5,-3,2,1.9,8,5,-0.7
O=C(NCc1ccc(Cl)cc1)C(=O)NCC1OCCN1S(=O)(=O)c1cc(F)ccc1F (stereo not given),-4,i,-13,-1.9,15,-1,3.2,6,14,8.4
Cc1ccc(C(=O)O)cc1NC(=O)CSc1ncnc2sc3c(c12)CCC3,0,i,6,6.1,1,-6,2.5,5,3,0.4
CC(=O)OCCn1c(=O)c2cc3c(=O)n(CCOC(C)=O)c(=O)c3cc2c1=O,-3,.,-2,.,-7,-5,-3.8,.,.,.
O=C(Nc1nncs1)c1ccccc1NS(=O)(=O)c1cccs1,.,.,5,.,0,-3,-5.0,.,.,.
CCOc1ccccc1Nc1nnc(SCC(=O)Nc2cccc(S(=O)(=O)NC3=NCCCCC3)c2)s1,-5,.,14,.,5,0,4.3,.,.,.
O=C(NCc1ccccc1)c1c[nH]c2ccc(S(=O)(=O)Nc3ccc4c(c3)OCCO4)cc2c1=O,-1,.,0,.,-2,0,-4.6,.,.,.
COc1ccc(-c2cc(C(=O)N3CCN(Cc4ccccc4)CC3)no2)cc1OC,-41,.,19,.,21,-9,-3.6,.,.,.
COc1ccccc1N1CCN(C(=O)CCS(=O)(=O)c2ccc3c(c2)oc(=O)n3C)CC1,88*,i,6,-2.5,3,-7,3.0,5,7,-1.8
CCOc1ccccc1-c1noc(CCCC(=O)NC2CCCCC2)n1,0,i,-39,1.8,5,-2,6.2,5,13,1.5
CCC(C)CCN1C(Nc2ccccc2)=NC[C@@H]1Cc1ccccc1 (stereo not given in full),1,i,-25,-10,8,15,-2.5,-2,-20,-1.7
CCOC(=O)c1c(-c2ccc(F)cc2)csc1NC(=O)C1CC=CCC1C(=O)O (stereo not given),?,i,35,-3.1,0,-8,0.0,-31,-46,-4.9
Cc1nc2ccccc2n1S(=O)(=O)c1ccc(Br)cc1,-4,.,-3,.,-5,-13,-1.4,.,.,.
COc1ccc(OC)c(/C=N\NC(=O)c2cc3c(ccc4ccccc43)o2)c1,-3,i,-2,0.2,4,2,3.8,-4,3,2.6
O=C(Nc1ccnn1C1CCN(C(=O)c2ccc(F)cc2)CC1)C1CCOC1 (stereo not given),2,i,3,-0.6,-4,.,0.0,4,6,-0.3
COc1ccc(N2C(=O)c3cc4ccccc4cc3C2=O)cc1,-9,i,-1,-2.5,-18,-8,-0.6,10,14,3.2
O=C1CCC(=O)N1CNc1ccccn1,.,.,-3,.,-6,-11,-2.7,.,.,.
CCN(C(=O)COC(=O)Cc1c[nH]c2ccccc12)C1CCS(=O)(=O)C1 (stereo not given),-12,i,-9,0.9,-12,-11,2.8,7,6,-1.4
Cn1c(-c2ccsc2)c(-c2cccs2)c2cc(-c3cccc4[nH]ccc34)ccc21,2,i,.,8.0,.,-2,.,1,5,-14
COc1ccccc1N1CCN(CC(=O)N(CC(C)C)c2c(N)n(CC(C)C)c(=O)[nH]c2=O)CC1,16,i,-15,-1.1,-11,-4,1.8,3,-20,-3.7
COc1ccccc1/C=C1\SC(=S)N(Nc2nc(C)cc(C)n2)C1=O,-3,.,25,.,-30,4,0.2,.,.,.
CN(C)S(=O)(=O)c1ccc(C(=O)OCCc2ccccc2)cc1,-5,i,2,-8.2,-10,-4,-5.5,1,-5,-1.6
Cc1c(Cl)cccc1NC(=O)CCS(=O)(=O)c1cccc2nonc12,3,i,55,-1.5,4,3,-2.8,10,22,1.2
CCOC(=O)c1c[nH]n(-c2ccccc2)c1=O,5,i,-6,0.4,21,1,8.4,-20,-35,-13
Cn1cc(CN2CCC(CO)(CCCc3ccccc3)CC2)c(-c2ccccc2)n1,-8,i,11,-36,-8,9,?,-1,-1,-0.1
CCCCn1nc(NC(=O)CCC)c2cc3cc(OC)ccc3nc21,.,i,-2,-10,7,13,71*,5,9,-0.8
CC(C)=CCN1CCN(Cc2ccc(C#CC(C)(C)O)s2)CC1CCO (stereo not given),-3,i,16,-0.5,8,-3,2.0,14,3,0.5
CC(C(=O)O)n1c2ccccc2c2cnn(C)c(=O)c21 (stereo not given),-24,i,-2,4.4,3,0,3.2,8,4,1.1
CCOC(=O)C1CCN(C(c2cc(OC)c(OC)c(OC)c2)c2sc3nc(C)nn3c2O)CC1 (stereo not given),-32,i,-2,0.4,2,3,3.7,4,9,-7.0
CC1(C)NC(=O)N(CCOCCOc2c(Cl)cc(Cl)cc2Cl)C1=O,5,.,-7,.,-10,1,-1.3,.,.,.
Cc1ccc(NS(=O)(=O)c2cccc(C(=O)NCC(c3ccco3)N3CCCC3)c2)cc1 (stereo not given),-5,i,.,?,.,-4,.,-8,-18,3.7
O=C(/C=C/c1ccc([N+](=O)[O-])cc1)OCC(=O)N1CCCC1,-11,i,.,-0.2,.,-6,.,4,11,-4.5
Cc1c(NC(=O)c2cc(S(=O)(=O)N3CCCCC3)ccc2Cl)c(=O)n(-c2ccccc2)n1C,-8,i,.,1.4,.,3,.,-2,3,-1.3
N#Cc1ccccc1NC(=O)COC(=O)C1CCN(C(=O)c2ccc(Cl)cc2)CC1,.,i,.,-2.4,.,-4,.,3,1,0.6
CCC(C)NCCOCCOc1ccccc1-c1ccccc1 (stereo not given),1,.,-36,.,-2,5,-1.3,.,.,.
Cc1nnc(-c2cnn(C)c2N)n1Cc1ccccc1F,-2,.,4,.,-29,-3,0.9,.,.,.
CCC(Cc1ccccc1)NC(=O)C1CCN(S(=O)(=O)c2ccc3c(c2)CC(C)N3C(C)=O)CC1 (stereo not given),0,i,1,-8.7,-1,-4,-1.2,-10,-13,4.4
CC1(C)CC2CC(C)(CN2C(=S)Nc2ccccc2F)C1 (stereo not given),-7,i,6,-1.8,-10,-14,-0.2,-16,-16,-1.4
Cc1ccccc1C(CC(=O)c1cccs1)C(C#N)C#N (stereo not given),27,.,0,.,-18,-9,0.0,.,.,.
CC(C)Cn1c(N)c(C(=O)COC(=O)c2cc(-c3ccccc3)nc3ccccc23)c(=O)n(C)c1=O,-9,i,-2,-4.7,43,12,0.0,18,18,6.7
CC(C)[C@H](NC(=O)C1CCC(CNC(=O)[C@@H]2CCCN2C(=O)OC(C)(C)C)CC1)C(=O)O (stereo not given in full),.,i,-6,-3.8,-12,.,1.1,13,8,-1.6
CCn1c(SCc2ccccc2)nc2c(c1=O)SCC2,90*,i,-7,9.4,13,-11,0.3,-13,-22,-4.8

(listing goes on)
Molecule,ALR inh,FGF22 binding,Calb FLC,MLL AF4-AF9 inh,T cruzi inh,Beta apoptosis,RanGTP-Imp inh,rRNA inh HTS,rRNA inh HTS OD600,rRNA inh HTS RFP
C[C@@]12CCC=C[C@H]1[C@H](c1ccc3ccccc3c1Br)N(Cc1ccccc1)C2=O,1,i,-10,-4.0,35,6,1.6,8,17,1.0
CCN(CC)c1ccc(CNc2ccc3c(c2)ncn3CC)cc1,98*,i,-5,45*,37,27,-4.4,7,15,-0.9
Cc1cc2cc(CNC(=O)Nc3ccccc3)ccc2n1C,-1,i,-3,0.9,46,4,-4.9,4,5,25
CC(CN1CCN(C)CC1)OC(=O)c1ccccc1 (stereo not given),.,.,1,.,24,-6,3.5,.,.,.
CCOc1ccc(CNC(=O)CCn2c(=O)oc3ccccc32)cc1OC,-9,.,-1,.,0,0,0.3,.,.,.
Cc1ccc(C)c(S(=O)(=O)N2CCN(C(=O)CSc3ccccc3F)CC2)c1,-1,i,-2,-4.1,-2,-5,1.0,-6,-13,6.5
CSc1nc(-c2ccccc2)nc(N2CCOCC2)c1C(C)=O,.,i,10,8.5,7,-4,5.4,-46,-66,-6.5
O=C(O)c1ccc(-c2noc(-c3cccc(C(F)(F)F)c3)n2)cc1,7,.,14,-0.1,-10,-15,0.4,-4,-7,-3.5
S=C(c1ccc(Cl)cc1)N1CCN(Cc2ccccc2)CC1,-1,i,-10,7.5,-3,.,-0.2,-29,-31,-2.6
